# RE007 growth inh = qHTS Assay for Inhibitors of the HIV-1 protein Vpr. S. pombe RE007 Vpr strain, BacTiter-Glo ATP luminescence, 24 h; control for the full effect not named in the record. Potency, µM (doses to about 92.2 µM), without a hit: at the highest dose activity change, negative = less growth. actives 0.21% (n = 360,000). AID 651644, 2012; active = well fitted falling curve with a large enough effect; inconclusive = small, poorly fitted or top-dose-only effect; inactive = no such curve, though single readings can be large or run the other way;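 note: % is set by controls: 0 for no effect and ±100 for the full control effect; nearly all actives have a fitted effect of over 50% in size; the assay follows cell death caused by Vpr and the record does not say whether a fall means rescue or toxicity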
#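 Fission yeast strain RE007, carrying one chromosomally integrated HIV-1 vpr copy, was seeded at OD 0.01 in PMG+AL medium with 23 nL pinned compound. After 24 h at 30 °C and 99% humidity, viability was read by BacTiter-Glo luminescence.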
# StopGo reporter = High Throughput Screening for Foot and Mouth Disease Virus Antivirals | human cells with a luciferase reporter of 2A StopGo recoding; control for the full effect not named in the record | Potency, µM (titrated, usually from 57.9 µM), inactives show at the top dose signal change, negative = less light | actives 1.2% (n = 410,000); active = well fitted falling curve with a large enough effect; inconclusive = small, poorly fitted or top-dose-only effect; inactive = no such curve, though single readings can be large or run the other way; tested in HEK293T cells; note: % is set by controls: 0 for no effect and ±100 for the full control effect; nearly all actives have a fitted effect of over 45% in size; luciferase light after 4 h
# Cruzain inh noDet = qHTS Assay for Promiscuous and Specific Inhibitors of Cruzain (without detergent); actives 2.3% (n = 200,000); Potency, µM, without a hit: max response, negative = inhibition, actives largely listed as inhibitors; purified cruzain, Z-FR-AMC fluorescence, no detergent; Cruzipain (Trypanosoma cruzi), P25779;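 note: plate controls were enzyme without inhibitor for no effect and buffer without enzyme for full effect; nearly all actives have a fitted effect of over 40% in size; top concentration of the series not given in the record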
# Target sequence (P25779 123-467 limits assumed): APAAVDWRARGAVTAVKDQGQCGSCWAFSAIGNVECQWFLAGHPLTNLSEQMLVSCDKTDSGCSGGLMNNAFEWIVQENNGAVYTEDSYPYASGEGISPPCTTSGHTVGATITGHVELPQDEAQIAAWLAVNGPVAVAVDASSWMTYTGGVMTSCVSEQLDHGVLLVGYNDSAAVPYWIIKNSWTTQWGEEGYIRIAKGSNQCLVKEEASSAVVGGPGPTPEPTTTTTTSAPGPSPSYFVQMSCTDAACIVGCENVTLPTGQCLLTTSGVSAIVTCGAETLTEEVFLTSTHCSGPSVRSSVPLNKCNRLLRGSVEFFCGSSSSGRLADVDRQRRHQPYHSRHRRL
#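 Detergent-free condition (0.00005% Triton X-100) in acetate buffer pH 5.5 with DTT. 1.5 nM enzyme and compound were pre-mixed 15 min, then 2 uM Z-FR-AMC substrate added; reaction progress from fluorescence change between first and third reads (60 s).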
# Cruzain Triton = qHTS Assay for Promiscuous and Specific Inhibitors of Cruzain (with detergent). Cruzipain (Trypanosoma cruzi), P25779. purified cruzain, Z-FR-AMC fluorescence, 0.01% Triton. Potency, µM, for the others: max response, negative = inhibition, hits mostly inhibitors. actives 0.43% (n = 200,000);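 note: plate controls were neutral wells for no effect and buffer without enzyme for full effect; nearly all actives have a fitted effect of over 40% in size; top concentration of the series not given in the record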
#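 Steps: dispense cruzain (1.5 nM final) in acetate buffer pH 5.5 with DTT and 0.01% Triton X-100; pin-transfer compounds; incubate 15 min RT; add Z-FR-AMC (2 uM final); read fluorescence every 30 s, using the 60 s intensity change.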
# NS1 inh = qHTS Assay for Inhibitors of Influenza NS1 Protein Function; S. cerevisiae slowed by influenza A NS1, growth recovery by OD600; Potency, µM (doses to about 46.1 µM), without a hit: at the top dose activity, positive = more growth; actives 0.4% (n = 270,000); active means well fitted rising curve with a large enough effect; inconclusive means small, poorly fitted or top-dose-only effect; inactive means no such curve, though single readings can be large or run the other way; note: nearly all actives have a fitted effect of over 50% in size
#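 Recovery from NS1-induced slow growth read by OD600 in budding yeast switched to galactose assay medium (pH 6.0, -URA) at 1:100 dilution. Compound 23 nl per well; the matching strain lacking NS1 serves as control.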
# MARV entry inh = qHTS for inhibitors of binding or entry into cells for Marburg Virus; Marburg virus pseudotyped entry inhibition, cell reporter; control for the full effect not named in the record; about a third of the inactives were read at about 46 µM; Potency, µM (titrated, usually from 37.8 µM), for inactives: top-dose activity change, negative = inhibition, actives largely listed as inhibitors; actives 1.8% (n = 300,000); active = well fitted inhibition curve with a large enough effect; inconclusive = small, poorly fitted or top-dose-only effect, or effect the other way; inactive = flat fitted curve, though single readings scatter; tested in HEK293 cells; about a fifth of its hits are not listed in these tables; note: % is set by controls: 0 for no effect and ±100 for the full control effect; luciferase read-out
# LASV entry inh = qHTS for Inhibitors of binding or entry into cells for Lassa Virus. actives 1.2% (n = 300,000). AID 540256, 2011. Potency, µM (highest dose often 37.9 µM), for inactives: top-dose activity change, negative = inhibition, actives largely listed as inhibitors. Lassa virus pseudotype entry inhibition, cell reporter; control for the full effect not named in the record; active means well fitted inhibition curve with a large enough effect; inconclusive means small, poorly fitted or top-dose-only effect, or effect the other way; inactive means flat fitted curve, though single readings scatter; tested in HEK293 cells; note: % is set by controls: 0 for no effect and ±100 for the full control effect; nearly all actives have a fitted effect of over 50% in size; luciferase read-out
# SARS PLP yeast = qHTS of Yeast-based Assay for SARS-CoV PLP; S. cerevisiae expressing SARS-CoV PLpro, growth rescue; control for the full effect not named in the record; Potency, µM (highest dose often 32.9 µM), for the others: at the top dose activity, positive = growth rescue; actives 0.19% (n = 330,000); active means well fitted rising curve with a large enough effect; inconclusive means small, poorly fitted or top-dose-only effect; inactive means no such curve, though single readings can be large or run the other way; note: 0% is about no effect; nearly all actives have a fitted effect of over 55% in size; growth read by luminescence after 48 h
# * hit, by the source's call; ? = inconclusive; . = not tested or not shown; & = joins results of further samples; [ ] = remark or other dose. Unless noted, calls come from the whole dose curve; as a rule, active = well fitted curve in the direction sought with a large enough effect; inconclusive = small, poorly fitted or top-dose-only effect, or another doubt; inactive = no such curve, though single readings can be large; an effect the other way counts as inactive or inconclusive. Potency is the fitted concentration of half-maximal effect.
SMILES,RE007 growth inh,StopGo reporter,Cruzain inh noDet,Cruzain Triton,NS1 inh,MARV entry inh,LASV entry inh,SARS PLP yeast
Cc1ccc(-c2nn[nH]n2)o1,-10.0%,-4.8%,4.6%,-2.3%,2.6%,27.3%,.,-3.9%
Cc1ccc(-c2nnc(N(C)C(=O)c3cccnc3)s2)cn1,-11.0%,34.9%[activator],4.5%,0.8%,-4.4%,9.6%[46.1 µM],17.1%,1.4%
O=C(NCC1CCCO1)C(=O)NCC(c1ccco1)N1CCN(c2ccccc2)CC1 (stereo not drawn),15.0%,-22.5%,19.3%,5.8%,6.6%,0.7%,-6.6%,5.6%
O=C1NC(c2ccccc2)Oc2ccccc21 (stereo not drawn),1.1%,-20.9%,.,.,15.1%,?,14.9%,1.2%
CC(C)NC(=O)COC(=O)c1cncc(Br)c1,-7.3%,-2.6%,.,.,.,6.6%[46.1 µM],15.4%[46.1 µM],24.0%
Cc1cc(C)c(C(=O)C(C)OC(=O)C2=COCCO2)cc1C (stereo not drawn),1.3%,-2.5%,.,.,-10.4%,5.0%,25.8%,18.9%
Cc1[nH]n(-c2ccccc2)c(=O)c1C(c1ccc(O)c([N+](=O)[O-])c1)c1c(C)[nH]n(-c2ccccc2)c1=O,-2.2%,-14.3%,.,.,.,8.0%,-5.5%,.
Cc1ccc(C2=C(O)c3ccccc3C(=O)C2=O)cc1,?,3.3%,.,.,-90.9%,.,.,-10.5%
Cc1c(C(=O)N2CCC(C)CC2)c(S(=O)(=O)N2CCN(c3cccc(Cl)c3)CC2)c(C)n1C,.,-18.6%,?,-5.5%,.,.,-2.1%[46.1 µM],.
CC(C)CN(CCNC(=O)CC1Oc2ccccc2NC1=O)CC(C)C (stereo not drawn),-5.3%,-17.4%,0.7%,3.4%,-8.7%,.,.,-0.1%
COc1ccc(C2=C(C)C(=O)N(Cc3ccc(C(=O)NCc4cccc(C)c4)cc3)S2(=O)=O)cc1,.,-22.6%,25.1µM*,-18.6%,.,.,?,.
CC1=C(C(=O)Nc2ccc(C)cc2C)C(c2ccc(C)o2)NC(=O)N1 (stereo not drawn),4.9%,2.8%,-1.8%,1.5%,-1.3%,-7.3%,21.3%,9.7%
CC1=NC(C)(C)Cc2cc(C)c(C)cc21,2.6%,4.9%,.,.,1.1%,-22.3%[46.1 µM],.,0.2%
CCCN1C(C(=O)c2ccccc2)=C(OC(=O)c2ccc(OC)cc2)c2ccccc2S1(=O)=O,.,-4.6%,2.5%,-2.0%,.,-10.9%[46.1 µM],-25.3%[46.1 µM],.
COc1ccc(/C(C)=N\NC(=O)CSc2nnc(C)s2)cc1,-1.5%,-11.6%,-5.0%,-2.2%,0.0%,?,-4.2%,-11.2%
O=C(NCC1CCCO1)C(c1ccc(F)cc1)N(CCCN1CCOCC1)C(=O)c1ccc(-c2ccccc2)[nH]1 (stereo not drawn),-22.3%,-1.2%,.,.,.,?,-22.4%,-2.4%
O=C(c1ccc(-c2nnc(-c3ccccc3)o2)cc1)N1CCCCCC1,-3.1%,-22.2%,-2.6%,9.0%,-12.8%,-3.8%,14.0%,-2.1%
COCCCn1c(SCC(=O)NC2CCCCC2)nnc1-c1ccncc1,1.7%,50.1%[activator],11.9%,-1.0%,-10.1%,?,8.1%,-4.9%
Cc1cc(C(=O)C(=O)N(C)C)c(C)n1-c1ccc(Cl)cc1,10.2%,-8.3%,.,.,.,-13.3%[46.1 µM],-14.2%[46.1 µM],-3.6%
CC(C)c1ccc(NC(=O)NCc2ccccn2)cc1,0.4%,24.4%,.,.,1.6%,.,.,-4.4%
CCOc1ccc(C(=O)c2cn(Cc3cccc(OC)c3)c3cc4c(cc3c2=O)OCO4)cc1,.,-10.4%,0.6%,0.3%,.,?,-23.3%[46.1 µM],.
O=S(=O)(O)c1ccc(Cl)c(Cl)c1,-6.5%,7.5%,.,.,.,9.2%[46.1 µM],12.7%[46.1 µM],.
Cc1nc(C)c(-c2ccc(SCC(=O)Nc3ccc(F)c(F)c3)nn2)s1,.,-2.1%,?,-5.9%,.,.,-27.8%[46.1 µM],.
Cc1cc(C)c(C(N)=O)c(Nc2cccc(Cl)c2C)n1,-6.8%,.,-1.3%,-4.1%,-62.4%,-16.4%,?,-2.5%
CCOC(=O)C(C(C)=O)c1nc(C)nc2c1nnn2Cc1ccccc1Cl (stereo not drawn),-19.4%,-23.9%,17.7%,2.0%,-21.4%,-2.9%,-3.8%,-9.4%

# Compound profiles (already shown):
# Cc1ccc(C2=C(O)c3ccccc3C(=O)C2=O)cc1 is entered as RE007 growth inh: ?; StopGo reporter: 3.3%; Cruzain inh noDet: .; Cruzain Triton: .; NS1 inh: -90.9%; MARV entry inh: .; LASV entry inh: .; SARS PLP yeast: -10.5%
# CC(C)CN(CCNC(=O)CC1Oc2ccccc2NC1=O)CC(C)C (stereo not drawn) is entered as RE007 growth inh: -5.3%; StopGo reporter: -17.4%; Cruzain inh noDet: 0.7%; Cruzain Triton: 3.4%; NS1 inh: -8.7%; MARV entry inh: .; LASV entry inh: .; SARS PLP yeast: -0.1%
# CC1=NC(C)(C)Cc2cc(C)c(C)cc21 is entered as RE007 growth inh: 2.6%; StopGo reporter: 4.9%; Cruzain inh noDet: .; Cruzain Triton: .; NS1 inh: 1.1%; MARV entry inh: -22.3%[46.1 µM]; LASV entry inh: .; SARS PLP yeast: 0.2%

# New compounds follow.
SMILES,RE007 growth inh,StopGo reporter,Cruzain inh noDet,Cruzain Triton,NS1 inh,MARV entry inh,LASV entry inh,SARS PLP yeast
CC(C)CNC(=O)C(=O)NC1CCCC1,0.8%,27.2%,.,.,.,7.8%,15.1%,.
COc1ccc(/C=C/C(=O)c2ccc3c(c2)OCO3)c(OC)c1,?,25.3%,-17.1%,-7.7%,-21.6%,-33.7%,?,-47.2%
O=C(Cc1ccc(-n2c(=O)c3sccc3n(Cc3ccc(F)cc3)c2=O)cc1)NCc1ccco1,5.9%,-16.4%,-14.9%,5.3%,-0.9%,.,.,-1.3%
COc1ccccc1N1CCN(/N=C/c2cc(OC)c(OC(C)=O)c(OC)c2)CC1,1.7%,4.9%,.,.,9.9%,.,.,-0.6%
CC(C)=CCc1c(C)nc2ccccc2c1C(=O)O,17.1%,-24.0%,-0.4%,-0.5%,-5.9%,22.5%,13.8%,3.3%
O=C(Nc1ccccc1)N1N=C(c2cccs2)CC1c1cccs1 (stereo not drawn),4.5%,-21.9%,-10.7%,-14.2%,-1.7%,-26.9%,?,-33.3%
COc1ccc(-c2ccc(SCC(=O)NCc3ccc4c(c3)OCO4)nn2)cc1OC,42.6%,-26.1%,.,.,.,?,?,1.4%
COc1ccc(OC)c(S(=O)(=O)N2CCC3(CC2)OCCN3S(=O)(=O)c2ccccc2)c1,2.0%,13.8%,.,.,.,22.6%,-10.9%,-0.1%
C[C@@H](C(=O)Nc1ccc2ccccc2c1)[C@@H]1C[C@@]1(C)[C@@H](NC(=O)c1cccnc1)c1ccccc1,13.3%,-4.0%,?,-3.0%&-9.6%,12.6µM*,-44.6%,-26.0%,7.0%
CCn1c(O)c(N=NC(=O)CNC(=O)/C=C/c2ccccc2)c2ccccc21,1.4%,-7.8%,.,.,6.7%,-19.8%[46.1 µM],?,5.2%
Cn1nc(C(F)(F)F)c(-c2ccccc2)c1NC(=O)c1nccnc1C(=O)O,-20.7%,-5.0%,.,.,-6.1%,.,.,0.8%
CCOc1ccccc1CNC(=O)C1CCC(=O)N1C(C)C (stereo not drawn),14.1%,9.3%,?,4.7%,-7.9%,0.3%,14.8%,-2.7%
COc1ccc(N2CCN(C(=O)COc3ccc4c(C)cc(=O)oc4c3)CC2)cc1,8.8%,-18.9%,.,.,.,?,10.1%,2.0%
CCN(Cc1ccccc1)C(=O)Cn1c(=O)n(-c2ccc(F)c(Cl)c2)c(=O)c2sc3ccccc3c21,.,-16.6%,-2.7%,-2.5%,.,-7.2%[46.1 µM],3.5%[46.1 µM],.
Cc1cc(C(=O)NCc2cccs2)c(C)o1,5.1%,-11.8%,-10.2%,-2.9%,-5.9%,2.6%,8.2%,-2.6%
O=C1CC(c2ccccc2)CC(O)=C1C=Nc1ccccc1Cl (stereo not drawn),-21.5%,-1.4%,5.3%,-7.1%,19.6%,23.6%,?,-15.9%
CCCNC(=O)c1cc2c(C(F)(F)F)nn(C)c2s1,-6.9%,-7.2%,28.1%,5.6%,-6.1%,27.3%,5.9%,-4.4%
CCOc1ccc(-c2cc(C(=O)Nc3ccc4c(c3)OCCO4)c3ccccc3n2)cc1,-4.1%,-14.5%,?,-5.5%,-3.0%,?,-15.3%,0.3%
COc1ccc(NC(=O)c2ccccn2)cc1OC,-6.6%,65.4%[activator],0.6%,0.1%,0.9%,7.6%,-4.0%,-15.0%
COc1ccc(NC(=O)CN(C)S(=O)(=O)c2cccs2)cc1,-9.9%,21.0%,-5.4%,-2.4%,-4.0%,-20.9%,?,-13.4%
COCCn1nnnc1CN1CCC(Cc2ccccc2)CC1,11.0%,.,10.5%,1.1%,-1.3%,3.5%,-8.3%,9.1%
O=C(NNC(=O)c1ccc(-c2ccccc2)cc1)c1ccccc1,5.2%,30.8%[activator],?,2.3%,5.2%,18.1%,12.5%,-4.1%
CCOC(=S)SCc1cn2ccc(C)cc2n1,-0.7%,-0.9%,-15.2%,-8.7%,10.5%,-1.3%,22.2%,10.5%

# Single entries from the results shown:
# StopGo reporter, O=C(Cc1ccc(-n2c(=O)c3sccc3n(Cc3ccc(F)cc3)c2=O)cc1)NCc1ccco1 reads -16.4%
# Cruzain Triton, COc1ccc(NC(=O)CN(C)S(=O)(=O)c2cccs2)cc1 reads -2.4%
# NS1 inh, Cn1nc(C(F)(F)F)c(-c2ccccc2)c1NC(=O)c1nccnc1C(=O)O reads -6.1%
